Screens as filed in PubChem.
Six1-Eya2 inh: qHTS Assay for Inhibitors of the Six1/Eya2 Interaction. Homeobox protein SIX1 (Homo sapiens) + Protein phosphatase EYA2 (Homo sapiens), …. AlphaScreen GST-Six1/His-Eya2 binding, biochemical; stronger effect = lower value; control for the full effect not named in the record. activity change, % (concentration not given with the values). 360,000 tested, 0.56% active. AID 651725, 2012; in the data active = activity change below about -65%; inconclusive = about -30% to -65%; inactive = above about -30%; also: % is scaled to controls: 0 for no effect and ±100 for the full control effect
Target sequence (O00167 whole entry, looked up): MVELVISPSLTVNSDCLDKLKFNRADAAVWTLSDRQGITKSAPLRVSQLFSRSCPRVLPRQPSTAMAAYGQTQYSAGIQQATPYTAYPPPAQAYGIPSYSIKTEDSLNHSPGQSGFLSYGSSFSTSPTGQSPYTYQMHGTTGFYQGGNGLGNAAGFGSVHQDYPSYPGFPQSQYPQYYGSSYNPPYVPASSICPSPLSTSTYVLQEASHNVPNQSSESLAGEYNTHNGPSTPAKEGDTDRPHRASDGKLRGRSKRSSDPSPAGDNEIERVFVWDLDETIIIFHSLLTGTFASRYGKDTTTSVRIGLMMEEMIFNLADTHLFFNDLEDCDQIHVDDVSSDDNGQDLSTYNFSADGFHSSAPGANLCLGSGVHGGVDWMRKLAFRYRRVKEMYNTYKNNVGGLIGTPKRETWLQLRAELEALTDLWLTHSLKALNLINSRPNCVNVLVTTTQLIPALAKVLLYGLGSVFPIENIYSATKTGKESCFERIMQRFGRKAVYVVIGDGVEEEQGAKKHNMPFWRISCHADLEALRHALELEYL
Target sequence (Q15475 whole entry, looked up): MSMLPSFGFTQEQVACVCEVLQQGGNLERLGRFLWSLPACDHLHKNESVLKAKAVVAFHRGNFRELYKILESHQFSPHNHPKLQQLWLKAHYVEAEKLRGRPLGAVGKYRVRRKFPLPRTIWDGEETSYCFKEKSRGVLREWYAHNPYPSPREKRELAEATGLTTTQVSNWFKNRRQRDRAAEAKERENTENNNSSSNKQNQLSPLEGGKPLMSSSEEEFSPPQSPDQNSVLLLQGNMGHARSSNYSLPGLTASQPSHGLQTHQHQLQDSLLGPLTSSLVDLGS
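AlphaScreen luminescence read after one hour at 37 °C in darkness. Pin-transferred compounds met GST-Six1 and His-Eya2 protein (5X stock 250 nM/500 nM) plus glutathione donor and Ni-chelate acceptor beads (5X, 50 ug/mL).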
TRPV1 potentiator: HTS Assay for Compounds that Act as Potentiators of the Vanilloid Receptor 1. Transient receptor potential cation channel subfamily V member 1 (Homo sapiens), Q8NER1. TRPV1-expressing cells, Fluo-8 calcium influx, capsaicin EC20 potentiation; host cell line not named in the record; control for the full effect not named in the record. potentiation, % at 8.33 µM. 320,000 tested, 0.02% active; active means potentiation above 80%; inconclusive means 30% to 80%; inactive means below 30%; also: 0% is about no effect
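Fluo-8 calcium influx in TRPV1-expressing cells, kinetic read (ex 480/em 520 nm). Compound added and read 3 min for agonist activity, followed by capsaicin at EC20 final and 2 min further read for enhancement.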
D2 ag: Beta-Arrestin HTS for Positive Allosteric Modulators of the Human D2 Dopamine Receptor: Agonists; D(2) dopamine receptor (Homo sapiens), P14416; DiscoveRx PathHunter D2 beta-arrestin, luminescence, 90 min; 100% = 57 uM dopamine signal; activation, % (concentration not given with the values); 360,000 tested, 0.084% active; AID 624465, 2012; in the data active = activation above about 40%; inconclusive = about 15% to 40%; inactive = below about 15%; also: compound concentration not given in the record; the text of the record calls up to 30% inactive
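DiscoveRx PathHunter D2 beta-arrestin cells (2,100/well) attached overnight, then compound-stimulated 90 min at 37 C in HBSS/10 mM HEPES/0.1% Tween-20 buffer; beta-galactosidase complementation read by luminescence after 1 h at ambient temperature. Dopamine 57 uM final (EC100) as control.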
Sfp PPTase inh: qHTS Assay for Inhibitors of Bacillus subtilis Sfp phosphopantetheinyl transferase (PPTase); Biochemical Sfp PPTase activity, qHTS; Potency, µM, for the others: max response, negative = inhibition, actives largely listed as inhibitors; 310,000 tested, 3.5% active; AID 1490, 2009; active = well fitted inhibition curve with a large enough effect; inconclusive = small, poorly fitted or top-dose-only effect, or another doubt; inactive = no such curve, though single readings can be large or run the other way;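 also: the enzyme is Sfp with the accession as filed and its product quenches rhodamine fluorescence; potency is read from the fitted curve at half-maximal effect; 0% = enzyme reaction without inhibitor and -100% = no enzyme wells; top concentration of the series not given in the record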
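Fluorescence-quenching assay with 15 nM Sfp, 5 uM rhodamine-CoA and 12.5 uM BHQ-2-labelled ybbR peptide in pH 7.6 Hepes/MgCl2 buffer. Enzyme was pre-incubated with compound for 15 min at room temperature. Rate was taken from the 30-min fluorescence change (525/598 nm).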
D2 PAM: Beta-Arrestin HTS for Positive Allosteric Modulators of the Human D2 Dopamine Receptor: Potentiators | potentiation, % (no concentration beside the values) | AID 624464, 2012 | DiscoveRx D2 beta-arrestin cells, luminescence, 90 min; 100% = 57 uM dopamine signal | 360,000 tested, 0.23% active | D(2) dopamine receptor (Homo sapiens), P14416; active = potentiation of 50% or more; inconclusive = 30% to 50%; inactive = 30% or less;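 also: compound concentration not given in the record; tested on top of an EC20 dose of dopamine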
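PathHunter beta-arrestin assay in DiscoveRx D2 cells. Compounds were added with an EC20 of dopamine (50 nM final) for 90 min at 37 deg C. Luminescence was read 1 h after detection reagent, with 57 uM dopamine as the EC100 control.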
CtBP-E1A inh: qHTS Assay for Inhibitors of the CtBP/E1A Interaction; AlphaScreen GST-E1A/His-CtBP binding, 1536-well; stronger effect = lower value; control for the full effect not named in the record; 340,000 tested, 0.49% active; activity change, % (test concentration not listed); CtBP / adenovirus E1A interaction (AlphaScreen); AID 651724, 2012; in the data active means activity change below about -65%; inconclusive means about -30% to -65%; inactive means above about -30%; also: % is scaled to controls: 0 for no effect and ±100 for the full control effect; compound concentration not given in the record
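AlphaScreen with 125 nM GST-E1A and 125 nM His-CtBP (5X stocks) in Tris pH 8.0, 300 mM NaCl, BSA, Tween 20, TCEP. Compounds preincubated 2 h at 37 deg C, then glutathione donor/nickel acceptor beads added for 1 h at 37 deg C in dark.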
PINK1 modulator: A Quantitative High throughput Screen to Identify Chemical Modulators of PINK1 Expression. PINK1 immunofluorescence, high-content cytometry, 24 h. Potency, µM (series often up to 76.6 µM), for inactives: at the top dose activation (PINK1 increase), hits mostly activators. 410,000 tested, 0.2% active. AID 624263, 2012; active = well fitted activation curve with a large enough effect; inconclusive = small, poorly fitted or top-dose-only effect; inactive = flat fitted curve, though single readings scatter; cell line not stated here;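 also: potency is read from the fitted curve at half-maximal effect; % of control where 0% means no effect; nearly all actives have a fitted effect of over 65% in size; a mitochondrial uncoupler was the plate control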
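A stable cell line was treated with compounds at 5 concentrations for 24 hours, with CCCP as control. PINK1 levels and mitochondrial localization were measured by immunofluorescence with mitochondrial, cell and nuclear markers after fixation, read by laser-scanning cytometry.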
* = called active by the depositor; ? = inconclusive; . = not tested or not shown; & = joins results of further samples; [ ] = dose if it differs, or a comment.

smiles,Six1-Eya2 inh,TRPV1 potentiator,D2 ag,Sfp PPTase inh,D2 PAM,CtBP-E1A inh,PINK1 modulator
CC(/C=N/n1c(-c2cccnc2)n[nH]c1=S)=C\c1ccccc1,1,5,0.9,?,-5,6,1.0%
CN(C)c1ccc(N=Nc2ccccc2Br)cc1,-87*,12,-2.9,-3%,-14,-90*,1.5%
CN(/N=C/c1ccc(Cl)cc1Cl)c1ncc(Cl)cc1C(F)(F)F,4,4,0.7,1%,3,.,3.1%
CCN(CC(=O)Nc1c(F)cccc1F)C(=O)c1nc2nc(C)cc(C)n2n1,3,6,-5.9,.,-22,10,2.0%
C=CCC[C@@H](Cc1ccc(F)cc1)C(=O)OC[C@H](Cc1c[nH]c2ccccc12)NC(=O)[C@H](CC=C)CC(=O)NCCO,5,.,1.8,.,6,5,-1.4%
CC(=O)Nc1ccc(-c2ccnc3c2CC(C(=O)NCCC(F)(F)F)O3)cc1 (stereo unspecified),0,.,-2.1,.,3,0,7.8%
CC(=O)c1cn(CC(=O)Nc2ccccc2)c2ccccc12,2,-11,-1.4,22%,-9,1,?
Cc1cc(-c2ccco2)n2c(nc3ccccc32)c1C#N,-20,-5,0.7,-25%,5,-12,4.0%
COc1ccc(NC(=O)Cn2nnc(-c3ccccc3F)n2)cc1Cl,6,7,-0.4,6%,-8,-2,9.9%
N#CCSc1nc(Nc2ccc3c(c2)OCO3)c2ccccc2n1,-26,8,-2.4,-1%,-27,-18,1.1%[38.3 µM]
CC(=O)Nc1ccc(C(=O)OCC(=O)N(C)C2CCCCC2)cc1,4,-5,-2.2,15%,-2,6,1.0%
CCCN1CCN(CCCNC(=O)C(CC)n2nc(C)n3c(cc4occc43)c2=O)CC1 (stereo unspecified),1,-1,0.8,13%,-25,4,5.0%&4.2%
C[C@H](CO)N1C[C@H](C)[C@H](CN(C)C(=O)Nc2ccc(F)cc2)OCc2cnnn2CCCC1=O,3,.,-0.2,.,-2,-17,1.7%
COc1ccccc1C(=O)Nc1nc2ccccc2s1,4,?,2.7,8%,0,-2,5.4%
O=C(c1ccccc1Oc1ccc(C(F)(F)F)cc1[N+](=O)[O-])N1CCOCC1,3,?,-2.6,-14%,-3,4,1.3%
N#Cc1cc2c(nc1SCC(O)CS(=O)(=O)Cc1ccccc1)CCCC2 (stereo unspecified),-1,6,1.2,-1%,-3,4,.
CCN(c1ccc(OC)cc1)S(=O)(=O)c1cc(-c2cc(C)no2)ccc1C(C)C,0,-4,-0.5,12%,-2,-13,2.0%
COc1cc(-c2ccc3sc(-c4ccsc4)c(C#CCO)c3c2)cc(OC)c1OC,-6,0,-0.3,.,-7,-7,19%
O=C(Nc1ccc(Br)cn1)c1cccc(-c2cc3ccccc3oc2=O)c1,6,-1,-0.1,-14%,-6,12,0.4%
NC(N)=N/N=C(\N=Nc1ccccc1)c1ccc(Cl)cc1,?,.,-14,.,-38,2,-2.0%
CC(C)CN1CCC1(C)C(=O)Nc1cc(-c2ccccc2)nn1C (stereo unspecified),-5,.,-5.6,.,-4,2,4.8%
O=C(NCCc1ccncc1)C12CC3CC(CC(C3)C1)C2,7,-7,-0.2,7%,2,5,13%[38.3 µM]
O=S(=O)(NNc1ncc(C(F)(F)F)cc1Cl)c1ccccc1,13,-1,5.4,.,-25,-14,0.9%
Cc1cc(OCC(=O)Nc2ccc3oc(-c4ccncc4)nc3c2)ccc1Cl,3,9,-0.6,4%,-14,9,.
O=C(NCc1ccccc1)C(c1cccnc1)N(C(=O)c1csnn1)c1ccc(F)cc1 (stereo unspecified),-4,5,-2.9,20%,-10,3,0.9%
Cc1ccc(-n2cc(CN(C)Cc3nccn3C)c(-c3ccc(F)cc3)n2)cc1,-28,-22,-0.5,-10%,-17,-16,5.1%
CC(C)OC(=O)CSc1nnc(CNc2nc(-c3ccccc3)cs2)n1C,?,13,-1.8,-28%,-6,?,-0.7%
Cc1ccn2c(=O)nc(SCC(=O)NCc3ccco3)nc2c1,-16,5,-1.0,.,-5,6,-1.1%
O=C(O)c1cccnc1Oc1ccccc1,0,9,-5.7,-1%,-5,6,-1.3%
COc1ccc(OCC(=O)Nn2c(-c3cccc(OC)c3)nc3ccccc3c2=O)cc1,-11,12,-0.7,0%,-20,-15,0.8%

Looked up by structure from the entries so far, two records:
smiles,Six1-Eya2 inh,TRPV1 potentiator,D2 ag,Sfp PPTase inh,D2 PAM,CtBP-E1A inh,PINK1 modulator
Cc1cc(-c2ccco2)n2c(nc3ccccc32)c1C#N,-20,-5,0.7,-25%,5,-12,4.0%
Cc1cc(OCC(=O)Nc2ccc3oc(-c4ccncc4)nc3c2)ccc1Cl,3,9,-0.6,4%,-14,9,.

Other structures
smiles,Six1-Eya2 inh,TRPV1 potentiator,D2 ag,Sfp PPTase inh,D2 PAM,CtBP-E1A inh,PINK1 modulator
Cc1cc(Br)cn2cc(C(=O)O)nc12,0,9,-6.2,10%,-3,-2,3.3%
CCn1c(CCNC(=O)c2ccc(Cl)c(Cl)c2)nnc1SCCOc1ccc(OC)cc1,-20,-9,1.9,9%,-10,-18,-1.2%[38.3 µM]
C[C@H](CO)N1C[C@H](C)[C@@H](CN(C)C(=O)Nc2ccc(C(C)(C)C)cc2)OCc2cnnn2CCCC1=O,14,.,-2.5,.,6,6,12%
COc1ccc(Cl)cc1N(CC(=O)NCc1ccccn1)S(=O)(=O)c1ccc(C)cc1,-20,.,-1.3,.,-21,22,5.0%
CCCCN(C(=O)CCn1c(=O)oc2ccccc21)c1ccccc1,2,-1,-0.8,8%,-2,.,0.0%&-4.4%
O=C(c1ccc(N2CCCC2=O)cc1)N1CCN(c2cccc(C(F)(F)F)c2)CC1,-1,3,-1.9,.,-12,5,0.4%
CCCCOc1ccc(C(=O)N2CCN(CC(=O)Nc3ccc(C)cc3)CC2)cc1OC,19,-6,-2.6,-2%,-6,-2,-0.5%
O=c1cc(N2CCc3ccccc32)[nH]c(=O)n1-c1ccccc1,9,?,-7.1,18%,4,-3,-0.4%
O=C(COC(=O)c1ccc(Cl)c(S(=O)(=O)N2CCCCCC2)c1)Nc1ccccc1,2,20,-4.1,25%,-2,7,7.0%
COCCNC(=O)CN(c1ccc(F)cc1)S(=O)(=O)c1ccc2c(c1)OCCO2,-1,1,-0.6,11%,-2,-6,2.2%
Cc1ccc(-n2c(CCc3ccccc3)nnc2SCC(=O)NCc2ccccc2)cc1C,-4,-4,-6.0,-3%,-15,0,-2.3%
C/C(=N\NC(=O)COc1ccc(C#N)cc1)c1ccccc1OC(F)F,5,-3,-5.4,17%,-12,4,-1.2%
CN(C)S(=O)(=O)c1ccc(C(=O)Nc2ccc(F)cc2F)cc1,10,-19,-1.4,3%,-5,-15,0.7%
O=C(Nc1nccs1)c1cc2c(s1)-c1ccccc1OC2,15,-8,-3.2,17%,-6,11,4.2%
Cc1ccc(S(=O)(=O)N2CCCC(N3CCOCC3)C2)cc1Cl (stereo unspecified),2,4,-6.2,2%,-2,-3,0.0%
COc1ccc(OC)c(NC(=O)c2ccc(CSc3ncccn3)cc2)c1,-4,7,1.6,3%,-6,-7,-1.3%
O=C(CSc1nnnn1-c1ccc2c(c1)OCO2)NCc1cccs1,12,3,3.8,-6%,-8,-2,1.5%
Cc1cc(C)cc(NC(=O)c2ccc3nc[nH]c3c2)c1,-17,-16,-2.6,10%,-3,.,4.0%
COc1cccc(NC(=O)CSc2nc(=O)n(Cc3ccncc3)c3c2CCCC3)c1,-8,1,-2.3,.,-3,-1,0.8%
CC1(Oc2cccc(F)c2)CCN(Cc2ccc3ccccc3c2)C1 (stereo unspecified),7,.,4.0,.,-16,5,?
Cc1ccc(OCCNCc2ccccc2)c(C)c1,3,-3,0.7,?,-16,4,12%
CC(C)(C)OC(=O)N[C@H]1C=C[C@H](OC(=O)CC(=O)OCC(F)(F)F)C1,6,.,0.6,.,.,5,-1.1%
O=C(NCCc1ccccc1)C1CCN(S(=O)(=O)c2ccc(Br)s2)CC1,3,-6,-5.4,-1%,5,-7,0.5%
CC(C)(C)NC(=O)C1CCC(CNc2c(N3CCCCC3)c(=O)c2=O)CC1 (stereo unspecified),1,7,-3.6,2%,-12,-4,0.5%
c1ccc(-c2csc3ncnc(NCC4COc5ccccc5O4)c23)cc1 (stereo unspecified),-8,-12,-0.3,-11%,-4,4,4.0%
CC1=NNC(=O)/C1=C\c1cn(-c2ccccc2)nc1-c1ccc(F)cc1,22,-5,6.2,9%,3,-9,-2.3%
COc1ccc(NC(=O)COC(=O)c2cnccn2)cc1Cl,5,0,-0.6,9%,-23,3,-0.7%
CC(C)(O)C#Cc1ccc(C(=O)Nc2ccc3c(c2)OCO3)s1,-6,4,-4.1,2%,-8,0,3.1%
CCOC(=O)N1CCC(n2c(SCC(=O)NCCc3ccc(S(N)(=O)=O)cc3)nc3ccccc3c2=O)CC1,6,-20,-4.5,-7%,0,4,1.3%

Single records, from the list above. Values in the order: Six1-Eya2 inh | TRPV1 potentiator | D2 ag | Sfp PPTase inh | D2 PAM | CtBP-E1A inh | PINK1 modulator
CCCCN(C(=O)CCn1c(=O)oc2ccccc21)c1ccccc1 is entered as 2 | -1 | -0.8 | 8% | -2 | . | 0.0%&-4.4%
CCOC(=O)N1CCC(n2c(SCC(=O)NCCc3ccc(S(N)(=O)=O)cc3)nc3ccccc3c2=O)CC1 is entered as 6 | -20 | -4.5 | -7% | 0 | 4 | 1.3%

Copied from the list.
C[C@H](CO)N1C[C@H](C)[C@@H](CN(C)C(=O)Nc2ccc(C(C)(C)C)cc2)OCc2cnnn2CCCC1=O – CtBP-E1A inh: 6
O=C(CSc1nnnn1-c1ccc2c(c1)OCO2)NCc1cccs1 – D2 ag: 3.8
